# KCNK3 block – human KCNK3 channel inhibition, primary screen; CHO-KCNK3 thallium flux, FluxOR fluorescence; hits give low values; B-score at 10 µM; actives 0.84% (n = 340,000);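 active = B-score under library mean minus 4 SD, starting fluorescence ratio at most library mean plus 5 SD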;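 note: more negative B-score means stronger inhibition of thallium flux through KCNK3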
# Target sequence (O14649 whole entry, looked up): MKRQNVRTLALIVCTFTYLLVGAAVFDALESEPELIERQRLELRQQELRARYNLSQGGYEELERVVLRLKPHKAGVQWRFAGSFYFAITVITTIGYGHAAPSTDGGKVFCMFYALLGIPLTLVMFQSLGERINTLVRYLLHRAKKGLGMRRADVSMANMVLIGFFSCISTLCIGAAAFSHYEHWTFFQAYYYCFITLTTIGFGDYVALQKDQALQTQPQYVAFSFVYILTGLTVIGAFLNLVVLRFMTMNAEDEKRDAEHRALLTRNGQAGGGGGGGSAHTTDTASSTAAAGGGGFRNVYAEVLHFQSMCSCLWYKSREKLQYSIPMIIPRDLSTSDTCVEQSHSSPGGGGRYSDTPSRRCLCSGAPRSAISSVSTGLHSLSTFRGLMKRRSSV
# TRPC4 block – inhibitors of mouse TRPC4 channel; AID 2247; HEK293 TRPC4beta/mu-opioid, DAMGO-evoked Fluo4 calcium flux; hits give low values; actives 0.39% (n = 300,000); Q9QUQ5; B-score at 10 µM;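 active = B-score over 3 SD under the library average, no early fluorescence shift, positive overall ratio signal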
#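 Material: HEK293 cells with stable TRPC4beta plus mu-opioid receptor expression / Probe or stimulus: DAMGO in two steps, submaximal then maximal / Compound: single concentration per test compound / Technique: kinetic Fluo4 fluorescence imaging of calcium influx / Read-out: per-well B score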
# hERG protect – compounds protecting human hERG from proarrhythmic drug block; AID 1511; actives 0.51% (n = 310,000); CHO-hERG, FluxOR thallium flux, dofetilide IC70 present; activation (rescue from dofetilide block), less the hit threshold, % at 10 µM;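 active = activation above the mean of controls blocked by dofetilide plus 5 SD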;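 note: thallium influx through hERG after potassium depolarization seen as dye fluorescence rise; in these data hits start at about 4.7%; inactives centre near -7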
# Dyrk1A ADPGlo – Dyrk1A (rat) kinase inhibition. AID 504441. Q63470. actives 0.43% (n = 310,000). ADP-Glo luminescence, NFATc1 peptide. inhibition, % at 12.5 µM; in the data active = inhibition above about 50%;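 note: plate controls were vehicle with enzyme for no effect and no enzyme for full effect; many of its hits are not listed in these tables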
# TRPC4 PAM – TRPC4 (mouse) allosteric potentiation | Q9QUQ5 | HEK293 TRPC4beta/mu-opioid, DAMGO EC20, Fluo-4 Ca2+ flux; hits give high values | B-score at 10 µM | actives 0.42% (n = 310,000) | AID 2227;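 active = B-score of calcium response area above 5 SD of library B-scores, with initial fluorescence ratio within 5 SD of library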;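 note: B-score of integrated fluorescence ratio over time as area under calcium response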
# KCNQ1 block – human KCNQ1 channel inhibition; P51787; CHO-K1 KCNQ1, FluxOR thallium flux fluorescence; hits give high values; B-score at 10 µM; actives 1.3% (n = 310,000); AID 2642;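 active = compounds whose thallium flux B-score, printed positive for inhibition, exceeds three library SD while starting fluorescence stays within three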;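 note: channel opened by potassium depolarization with thallium stimulus after 20 min compound exposure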
# PolyA inh – blocks polyadenylation in yeast reporter cells | AID 1875 | actives 0.02% (n = 300,000) | calls only at 12 µM | S. cerevisiae SKY197-pL101 polyadenylation reporter, beta-gal luminescence; efflux-impaired pdr1/pdr3 knockout yeast; score 100 = 6 SD above DMSO;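 active = lowest replicate activity score at least 50, where 100 means six control SD above control mean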;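 note: yeast exposed to compound for 9 h at 30 °C; higher score means more reporter readthrough which indicates perturbed polyadenylation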
# TRPC4 act – TRPC4 (mouse) channel activation; Q9QUQ5; actives 0.49% (n = 310,000); B-score at 10 µM; HEK293 TRPC4beta/mu-opioid, Fluo4 calcium fluorescence; hits give high values;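 active = B-score above 5 SD of library B-scores, and initial fluorescence ratio not above library mean plus 5 SD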;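 note: positive B-score marks a calcium rise read as TRPC4 activation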
#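 Test system: HEK293 cells stably co-expressing mouse TRPC4beta and mu-opioid receptor | Schedule: Fluo4 dye loading 45 min at room temperature, 110 s recording | Measured by: Kinetic Fluo4 calcium fluorescence, 5 s baseline at 1 Hz | Evaluation: B score of integrated ratio | Controls: Buffer (low) and maximal DAMGO (high)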
# KCNQ1 act – potentiators or activators of human KCNQ1 potassium channel; P51787; CHO-K1 KCNQ1, thallium flux FluxOR fluorescence; hits give high values; B-score at 10 µM; actives 0.35% (n = 310,000);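 active = fluorescence ratio B-score, a plate-corrected score, at least three library SD, with initial intensity B-score within 5 SD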
#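 Assay system: stable KCNQ1 CHO-K1 line; medium: assay buffer, equal DMSO in all wells; timing: 90 min dye loading and 20 min compound exposure, both at room temperature; technique: kinetic FluxOR thallium fluorescence, 10-s 1-Hz baseline, 110-s post-stimulus read; read-out basis: B score of baseline-normalized fluorescence ratio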
# Platelet DG rel – modulates dense granule release in human platelets | human platelet-rich plasma, SFLLRN dense granule ATP release, luminescence | inhibition, %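 (compounds screened at 7.5 µM in platelet-rich plasma)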 | actives 0.22% (n = 300,000);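 active = mean replicate score, as percent of positive control, at or above 50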
# Numbers without * were called inactive; i = inactive; . = not tested or not shown.
SMILES,KCNK3 block,TRPC4 block,hERG protect,Dyrk1A ADPGlo,TRPC4 PAM,KCNQ1 block,PolyA inh,TRPC4 act,KCNQ1 act,Platelet DG rel
CCOC(=O)C(C)n1cnc2scc(-c3ccc(C)c(C)c3)c2c1=O (centres undefined),i,i,-8,16,i,6*,i,i,i,4
O=C(Nc1ccccc1N1CCCCC1)C1CCN(C(=O)c2ccc(Cl)cc2)CC1,i,i,-10,-4,i,i,i,i,i,-14
COc1ccc(C(=O)C2CCCN(C(=O)c3cc(C)on3)C2)cc1F (centres undefined),i,i,-6,7,i,i,i,i,i,1
O=C(Nc1sc(-c2ccccc2)cc1C(=O)O)c1ccccc1,i,i,-15,26,i,i,i,i,i,6
COc1ccc2c(c1)c(C(=O)N/N=C/c1cccc(Br)c1)c(C)n2C,i,i,-15,.,i,i,i,i,i,-2
CCOC(=O)[C@@H]1[C@H]2COc3ccccc3[C@@H]2N2C(=O)N(c3cccc(F)c3)C(=O)[C@]12C,i,i,-7,2,i,i,i,i,i,5
O=C(Nn1c(SCc2ccccc2F)nc2ccsc2c1=O)c1ccccc1,i,i,-10,-1,i,i,i,i,i,8
N#C/C(=C\c1cn[nH]c1-c1ccc(Cl)cc1)C(=O)NCc1ccccc1,i,i,1,5,i,i,i,i,i,0
CC(C)(CNC(=O)/C=C/c1ccc(F)cc1)CNC(=O)/C=C/c1ccc(F)cc1,i,i,-15,-5,i,i,.,i,i,-96
O=[N+]([O-])c1ccc(N2CCN(c3ccccc3F)CC2)c(S(=O)(=O)N2CCOCC2)c1,i,i,-5,4,i,i,i,i,i,18
Cc1ccc2c(CN3CCN(Cc4ccc5c(c4)OCO5)CC3)cc(=O)oc2c1C,i,i,-7,-2,i,i,i,i,i,0
COc1cc(/C=C/C(=O)c2ccc(NS(=O)(=O)c3ccc(C)cc3)cc2)cc(OC)c1O,i,i,-6,-2,i,i,i,i,i,0
Cc1cc(C(=O)CSc2ccc3c(c2)OCCO3)c(C)n1C1CC1,i,i,-6,-6,i,i,i,i,i,-6
CCOC(=O)[C@@H]1[C@H]2COc3ccc(Br)cc3[C@@H]2N2C(=O)N(c3ccc(C)cc3)C(=O)[C@@]12C,i,.,.,6,.,.,.,.,.,.
Cc1ccc(SCc2cc(=O)[nH]c(/N=C(\N)Nc3cccc4ccccc34)n2)cc1,i,i,-10,-1,i,i,i,i,i,-14
CSc1cccc(NC(=S)N(C(C)C)C(C)c2ccccn2)c1 (centres undefined),-10*,i,-11,0,i,i,i,i,i,7
Cc1c(C(=O)N2CCc3ccccc3C2)oc2ccc(S(=O)(=O)N3CC(C)CC(C)C3)cc12 (centres undefined),i,i,-7,-9,i,i,i,i,i,-6
O=C(Nc1ccn(Cc2ccccc2)n1)c1cccc(Cn2cc([N+](=O)[O-])cn2)c1,i,i,-17,-2,i,i,i,i,i,11
Cc1ccc(SCc2cc(=O)[nH]c(Nc3nc(C)c4cccc(C)c4n3)n2)cc1,i,i,-14,4,i,i,i,i,i,1
CCC(C)Sc1cc(C(F)(F)F)c(C(=O)Nc2ccc(Cl)cc2)cn1 (centres undefined),i,i,-11,0,i,i,i,i,i,-2
Cc1ccccc1OCCNC(=O)c1ccc2ccccc2n1,i,i,-13,.,i,i,i,i,i,0
CN(Cc1ccccc1)c1nc(N)c([N+](=O)[O-])c(Nc2cccc(F)c2)n1,i,i,-8,0,i,i,i,i,i,0
CCc1cc2c(=O)n(Cc3ccco3)c(SCc3c(C)noc3C)nc2s1,i,i,-13,-8,i,i,i,i,i,-1
CC(Oc1cccc(Cl)c1)C(=O)Nc1cc(Cl)ccc1N1CCOCC1 (centres undefined),i,i,-16,-2,i,8*,i,i,i,-3
CCCCN(C(=O)c1cc(S(=O)(=O)N2CCCCCC2)ccc1OC)c1ccccc1,i,i,-14,1,i,i,i,i,i,-3
COc1ccc(Br)cc1C(C[N+](=O)[O-])c1c(N)n(C)c(=O)n(C)c1=O (centres undefined),i,i,0,.,i,i,i,i,i,8
Cc1cc(C)nc(N/N=C/c2ccccc2OCc2cccc(Br)c2)n1,i,i,-6,-1,i,i,i,i,i,4
CCOC(=O)[C@@H]1[C@H]2COc3ccc(Br)cc3[C@@H]2N2C(=O)N(c3ccc(F)cc3)C(=O)[C@]12C,i,i,-8,4,i,i,i,i,i,3
CC(=O)c1sc(N/N=C\c2ccc(Br)cc2)nc1C,i,i,-5,-7,i,i,i,i,i,3
Cc1sc2nc(C(C)C)nc(SCC(=O)N3c4ccccc4CC3C)c2c1C (centres undefined),i,i,1,-1,i,i,i,i,i,-4
COc1ccc(C/C(=N\OC(C)=O)c2ccc(OC)cc2)cc1,i,i,-9,2,i,i,i,i,i,3
CCOC(=O)C1CCN(C(=O)c2sc3ncnc(N4CCC(C)CC4)c3c2C)CC1,i,i,-6,6,i,i,i,i,i,7
COc1cc(OC)nc(Oc2ccccc2C(=O)Oc2ccc(C)cc2)n1,i,i,1,-2,i,i,i,i,i,-2
O=S(=O)(c1ccccc1)N(Cc1nc(-c2ccccc2)no1)C1CCCCC1,i,i,-6,-3,i,9*,i,i,i,4
Cc1ccc(/C=N/N2CCN(Cc3ccc(Cl)cc3)CC2)o1,i,i,-7,8,i,i,i,i,i,-6
COc1cc(C(F)(F)F)c(C(=O)NCc2cccc(Cl)c2)cn1,i,i,-2,.,i,i,i,i,i,2
C=CCN1C(=O)C(Cc2ccc(OCC)cc2)S/C1=N\N=C\c1cccs1 (centres undefined),i,i,-5,4,i,i,i,i,i,-4

# Among those listed so far, three contain an NH in an aromatic ring:
SMILES,KCNK3 block,TRPC4 block,hERG protect,Dyrk1A ADPGlo,TRPC4 PAM,KCNQ1 block,PolyA inh,TRPC4 act,KCNQ1 act,Platelet DG rel
N#C/C(=C\c1cn[nH]c1-c1ccc(Cl)cc1)C(=O)NCc1ccccc1,i,i,1,5,i,i,i,i,i,0
Cc1ccc(SCc2cc(=O)[nH]c(/N=C(\N)Nc3cccc4ccccc34)n2)cc1,i,i,-10,-1,i,i,i,i,i,-14
Cc1ccc(SCc2cc(=O)[nH]c(Nc3nc(C)c4cccc(C)c4n3)n2)cc1,i,i,-14,4,i,i,i,i,i,1

# 2 entries from above, set out differently.
structure: Cc1ccc(/C=N/N2CCN(Cc3ccc(Cl)cc3)CC2)o1
- KCNK3 block = i
- TRPC4 block = i
- hERG protect = -7
- Dyrk1A ADPGlo = 8
- TRPC4 PAM = i
- KCNQ1 block = i
- PolyA inh = i
- TRPC4 act = i
- KCNQ1 act = i
- Platelet DG rel = -6

structure: O=S(=O)(c1ccccc1)N(Cc1nc(-c2ccccc2)no1)C1CCCCC1
- KCNK3 block = i
- TRPC4 block = i
- hERG protect = -6
- Dyrk1A ADPGlo = -3
- TRPC4 PAM = i
- KCNQ1 block = 9*
- PolyA inh = i
- TRPC4 act = i
- KCNQ1 act = i
- Platelet DG rel = 4

# A portion of the library. The share of hits here may be higher or lower than overall.
